Screening results (PubChem BioAssay)
Mtb growth – Mycobacterium tuberculosis H37Rv growth inhibition, putative kinase inhibitor library, confirmatory dose response (AID 2842); M. tuberculosis H37Rv growth inhibition; higher % means a stronger effect; some inactives read as strong as hits; one-dose inhibition, % at 10 µg/mL; IC90 in µg/mL for titrated hits; 24,000 tested, 5.2% active;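 active = confirmed in a dose series; inconclusive = mostly over 85% at the one dose but not retested; inactive = below 85% or not confirmed; about a fifth of its hits are not listed in these tables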;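 also: bacteria incubated one week before Alamar blue readout; 0% = bacteria only wells and 100% = bacteria with high antibiotic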
Active calls of the source: *; u = inconclusive.

SMILES	Mtb growth
O=C(CC12CC3CC(CC(C3)C1)C2)Nc1nnc(-c2ccc(F)cc2)s1	5.7%
O=C(CCS(=O)(=O)c1ccc(Cl)cc1)Nc1ccc2scnc2c1	-4.0%
CS(=O)(=O)c1ccc2nc(NC(=O)c3cccc(C(F)(F)F)c3)sc2c1	u
O=C(NC(=S)Nc1nc2c(s1)CCc1ccccc1-2)c1ccccc1	3.6%
COc1ccc(C(=O)Nc2ccc(S(N)(=O)=O)cc2)cc1	-3.4%
Cc1cnc(=O)[nH]c1SCC(=O)c1ccc(F)cc1	-5.5%
Cc1oc(-c2ccc(F)cc2)cc1-c1nn2c(-c3ccoc3C)nnc2s1	26.5%
O=C(Nc1ccc(F)cc1)c1cn(Cc2ccccc2)cc2c(=O)n(-c3ccccc3)nc1-2	-8.1%
N#Cc1ccccc1Cn1c(=O)n(CC(=O)NCc2ccccc2Cl)c(=O)c2sccc21	-1.4%
NC(=O)c1c(NC(=O)c2ccc(S(=O)(=O)N3CCCCC3)cc2)sc2c1CCCCC2	2.4%
CCOc1ccc(C(=O)c2cn(Cc3ccc(OC)cc3)c3ccccc3c2=O)cc1	19.1%
Fc1ccc(CSc2nnc3ccc(-c4cccnc4)nn23)cc1	0.1%
COc1cc(OC)cc(C(=O)NCCc2cc3cc(C)c(C)cc3[nH]c2=O)c1	7.7%
Cn1c(=O)[nH]c(=O)c2c1nc(N1CCN(Cc3ccccc3)CC1)n2CCSc1ncccn1	7.1%
COc1cccc2c(=O)n(CC(=O)Nc3cccc(Cl)c3)ccc12	-3.5%

2 entries drawn at random from those above, as already listed:
SMILES	Mtb growth
COc1cccc2c(=O)n(CC(=O)Nc3cccc(Cl)c3)ccc12	-3.5%
COc1ccc(C(=O)Nc2ccc(S(N)(=O)=O)cc2)cc1	-3.4%

(next part)
SMILES	Mtb growth
O=C(O)c1ccc(CN2C(=O)CSC2=O)cc1	-16.1%
O=C(CSc1cn(Cc2ccccc2Cl)c2ccccc12)Nc1nc2ccccc2s1	10.2%
Cn1cccc1Cc1nnc(SCC(=O)Nc2ccc([N+](=O)[O-])cc2)n1C	9.7%
COc1cccc(C(=O)Nc2cccc(-c3ccc4nnc(C)n4n3)c2)c1	17.9%
COc1ccc(NC(=O)c2oc3ccccc3c2NC(=O)c2ccc(OC)cc2OC)c(OC)c1	8.8%
CCOC(=O)c1c(NC(=O)CC2SC(N)=NC2=O)sc2c1CCCC2 (stereo unspecified)	17.6%
S=c1[nH]nc(-c2ccncc2)n1C/C=C/c1ccccc1	-4.7%
O=C(COc1ccc(Br)cc1)N/N=C/c1ccccc1	-11.2%
COc1cccc(Cn2cc3c(-c4ccc(C)c(C)c4)nnc-3c3cc4c(cc32)OCO4)c1	3.6%
CC(=O)Nc1ccc(S(=O)(=O)NC2CC(=O)N(c3ccc(C)c(C)c3)C2)cc1 (stereo unspecified)	-3.6%
Cc1ccc(N2C(=O)CC(Nc3ccc(N4CCOCC4)cc3)C2=O)c(C)c1 (stereo unspecified)	9.5%
C=CCOC(=O)COc1ccc2cc(-c3ccccc3)c(=O)oc2c1	1.22µg/mL*
Cc1ccc(Nc2nc(N3CCN(C)CC3)nc3nccnc23)cc1C	74.6%
CCN1CCc2c(sc(NC(=O)c3ccc(OC(C)C)cc3)c2C(N)=O)C1	-2.0%
Cc1oc2c(c1C(=O)NCc1cccnc1)C(=O)c1ccccc1C2=O	8.29µg/mL*
N#CC1=C(SCC(=O)NCc2ccccc2)NC(=O)CC1c1ccccc1F (stereo unspecified)	5.5%
Oc1ccc2ccccc2c1/C=N/Nc1nnc2c(n1)[nH]c1ccccc12	6.0%
CC1CCc2sc(NC(=O)c3ccc(C#N)cc3)c(C(N)=O)c2C1 (stereo unspecified)	5.0%
O=C(O)CSc1ncnc2c1nnn2Cc1ccccc1F	-11.5%
COc1cccc(C(=O)Nc2sc3c(c2C#N)CCN(C(C)=O)C3)c1	-5.7%
CCc1ccc(Cc2cnc(NC(=O)c3c(C)coc3C)s2)cc1	7.42µg/mL*
O=C(Nc1sc2c(c1-c1nc3ccccc3s1)CCN(Cc1ccccc1)C2)c1ccc(Br)cc1	-6.4%
O=C(CCN1C(=O)/C(=C\c2cccc(Br)c2)SC1=S)N1CCOCC1	-7.2%
COc1ccc(/C=C/C(=O)NCCN2CCOCC2)cc1OC	-5.5%
NC(=O)c1oc2ccccc2c1NC(=O)c1ccc2c(c1)OCCO2	7.3%
Cc1nc(Nc2cccc(O)c2)c2cnn(CCc3ccccc3)c2n1	11.6%
COC(=O)Cn1c(=O)c2c(nc3n(-c4cc(C)cc(C)c4)c(C)cn23)n(C)c1=O	-5.2%
O=C(Nc1c(C(=O)Nc2ccc3c(c2)OCCO3)oc2ccccc12)c1ccc(Br)o1	1.5%
Cc1ccc(S(=O)(=O)Nc2ccccc2C(=O)Nc2nc(-c3ccc(Cl)cc3)cs2)cc1	10.9%
COc1ccc(OC)c(-n2c(C)c(C)n3c4c(=O)n(CC(C)=O)c(=O)n(C)c4nc23)c1	-0.7%
O=c1c2[nH]c3ccccc3c2nc(SCc2cccc(F)c2)n1-c1cccc(Cl)c1	22.6%
CCOC(=O)c1nn(-c2ccc(Cl)cc2)c(=O)c2c(NC(=O)c3ccc(S(=O)(=O)N(C)C)cc3)scc12	-7.0%
Cc1ccc(NC(=O)c2sc3ncn(CC(=O)N4CCC(C)CC4)c(=O)c3c2C)c(C)c1	-3.8%
COc1ccc(Nc2nc3ccc(C)cn3c(=O)c2/C=N\O)cc1	-0.9%
Cc1cccc(NC(=O)CSc2nc3c(oc4ccccc43)c(=O)n2Cc2ccc(F)cc2)c1C	-15.9%
O=C(NCCCc1ccccc1)c1c(O)nc2sccn2c1=O	67.3%
NC(=O)c1c(NC(=O)c2ccc(Cl)cc2)sc2c1CCN(Cc1ccccc1)C2	2.2%
Cc1ccc(C(=O)NCCc2cc3ccc(C)c(C)c3[nH]c2=O)cc1C	-8.3%
COC(=O)C(C)Sc1nc2c(c(=O)[nH]c(=O)n2C)n1Cc1ccccc1Cl (stereo unspecified)	1.1%
O=C(Cn1cc(C(=O)c2ccc(F)cc2)c(=O)c2cc3c(cc21)OCO3)Nc1ccc(F)cc1	5.7%
CCOC(=O)N1CCN(C(c2cccs2)c2c(C)[nH]c3ccccc23)CC1 (stereo unspecified)	53.0%
COc1ccc(C(=O)Nc2cccc(-c3ccc(OC)nn3)c2)cc1	-1.5%
C=CCn1c(SCCCO)nc2c1c(=O)[nH]c(=O)n2C	-2.8%
Cc1cc(SCc2ccc(Cl)c(Cl)c2)nc(=O)[nH]1	-6.8%
COc1ccc(-c2cc(-c3ccccc3)nc(SCC(=O)Nc3nccs3)c2C#N)cc1	-3.7%

Another view of 4 compounds above:
SMILES: C=CCn1c(SCCCO)nc2c1c(=O)[nH]c(=O)n2C
  Mtb growth = -2.8%
SMILES: O=C(Cn1cc(C(=O)c2ccc(F)cc2)c(=O)c2cc3c(cc21)OCO3)Nc1ccc(F)cc1
  Mtb growth = 5.7%
SMILES: Cc1cccc(NC(=O)CSc2nc3c(oc4ccccc43)c(=O)n2Cc2ccc(F)cc2)c1C
  Mtb growth = -15.9%
SMILES: COc1ccc(-c2cc(-c3ccccc3)nc(SCC(=O)Nc3nccs3)c2C#N)cc1
  Mtb growth = -3.7%

(listing goes on)
SMILES	Mtb growth
Cc1nnc(SCCn2c(N(C)Cc3ccccc3)nc3c2c(=O)n(C)c(=O)n3C)s1	5.1%
CN(c1ncnc(N)c1[N+](=O)[O-])C1CCCCC1	17.5%
N#Cc1ccc(-c2ccco2)nc1SCC(=O)NCc1ccc2c(c1)OCO2	3.6%
O=C1CC2(CCN(C(=O)Cc3ccc(Cl)cc3)CC2)Oc2ccccc21	18.6%
COc1ccc(C(=O)c2cn(CC(=O)Nc3ccc(F)c(F)c3)c3cc4c(cc3c2=O)OCO4)cc1	19.1%
COc1cccc2sc(Nc3nc4ccc(S(C)(=O)=O)cc4s3)nc12	20.2µg/mL*
COC(=O)c1c(N2C(=O)CC(Sc3ncccc3C(=O)O)C2=O)sc2c1CCC(C)C2 (stereo unspecified)	-25.7%
O=C(NCc1ccc(F)cc1)NC1CC(=O)N(c2cccc(F)c2)C1 (stereo unspecified)	7.9%
CN(Cc1ccccc1)S(=O)(=O)c1ccc(C(=O)Nc2nc3ccc4ccccc4c3s2)cc1	6.6%
CC(=O)Nc1ccc2nc(NC(=O)COc3ccc(Cl)cc3)sc2c1	6.1%
Cc1ccc(Nc2nc(N3CCN(Cc4ccccc4)CC3)nc3nccnc23)cc1C	-2.7%
O=c1[nH]ncc(N/N=C\c2c(F)cccc2Cl)c1Cl	-3.1%
COc1cccc2sc(Nc3sc4c(c3-c3nc5ccccc5s3)CCCC4)nc12	0.1%
COc1ccccc1N1CCN(c2cc(=O)n(-c3ccc(Br)cc3)c(=O)[nH]2)CC1	2.2%
O=C(Nc1nnc(-c2ccc(Cl)cc2)s1)c1ccc(S(=O)(=O)N2CCCC2)cc1	3.1%
CCCSc1nc2c(c(=O)[nH]c(=O)n2C)n1Cc1ccc(C)cc1	15.0%
Cc1ccc(C2C3=C(CC(C)(C)CC3=O)Nc3nc(SCCC(C)C)[nH]c(=O)c32)s1 (stereo unspecified)	17.0%
Cc1cccn2c(=O)c(/C=C(\C#N)C(N)=O)c(Oc3ccc(Cl)cc3)nc12	79.2%
CCC(=O)Nc1c(C(=O)Nc2cc(OC)ccc2OC)oc2ccccc12	-2.7%
CC(=O)Cn1c(=O)c2c(nc3n(-c4ccccc4F)c(C)cn23)n(C)c1=O	-1.6%
Cn1c(=O)c2c(SCC(=O)Nc3ccc(C(N)=O)cc3)nc(C3CCCC3)nc2n(C)c1=O	-13.4%
O=C(CSc1nccn(-c2ccc(Cl)cc2)c1=O)Nc1ccc(F)cc1F	9.1%
Cc1ccc2nc(-c3ccc(NC(=O)c4cnc5n(c4=O)CCS5)cc3)sc2c1	5.8%
Nc1ncnc(Nc2ccc(OCc3ccccc3)cc2)c1[N+](=O)[O-]	-5.5%
O=C(NNc1nc2c(Cl)cccc2s1)c1ccc(S(=O)(=O)N2CCc3ccccc3C2)cc1	17.7%
CC(=O)Nc1ccc(-n2c(O)c(C3=c4ccccc4=NC3=O)sc2=S)cc1	-12.9%
CS(=O)(=O)c1ccc(-c2nnc(NC(=O)c3cccc(Oc4ccccc4)c3)o2)cc1	75.9%
CN(C)S(=O)(=O)c1ccc(C(=O)Nc2ccc(Cl)cc2C(=O)c2ccccc2Cl)cc1	7.3%
CC(C)C(Br)C(=O)Nc1nnc(-c2ccc(F)cc2)s1 (stereo unspecified)	15.2%
COc1cccc(NC(=O)c2oc3ccccc3c2NC(=O)CCCl)c1	-2.5%

Additional structures.
| Compound | Mtb growth |
| --- | --- |
| Cc1ccc(-n2c(SCC(=O)Nc3cccc(C)c3)nc3c(c2=O)SCC3)cc1 | 4.4% |
| Cc1ccc(NC(=O)CN2N=NC3C(=O)N(c4ccc(Br)cc4)C(=O)C32)cc1 (stereo unspecified) | -7.6% |
| Cc1ccc(N2CC(NC(=O)Nc3ccon3)CC2=O)cc1 (stereo unspecified) | 0.4% |
| COc1ccc(-c2csc(Cc3nc(-c4cc5ccccc5oc4=O)cs3)n2)cc1 | 7.9% |
| Clc1ccc(-c2csc(Nc3nc4cc5c(cc4s3)OCO5)n2)s1 | 69.3% |
| CCOc1ccccc1NC(=O)CC1CCS(=O)(=O)C1 (stereo unspecified) | -16.9% |
| O=C(Nc1nc2c(ccc3ccccc32)s1)c1ccc(-c2ccccc2)cc1 | 3.8% |
| CC1CC(C)CN(C(c2cccc(F)c2)c2sc3ncnn3c2O)C1 (stereo unspecified) | -5.5% |
| Nc1ncnc(N2CCN(c3ccc(Cl)c(Cl)c3)CC2)c1[N+](=O)[O-] | 18.4% |
| Cc1cc(Nc2ccc(Cl)cc2C)c2cc(C(=O)O)ccc2n1 | -12.9% |
| COc1ccc(Cl)cc1N=c1oc2c(C)ncc(CO)c2cc1C(=O)Nc1cccc2ccccc12 | 4.5% |
| O=S(=O)(NCc1ccco1)c1cccc2c(S(=O)(=O)NCc3ccco3)cccc12 | -12.5% |
| COc1ccc(/C(O)=C2\C(=O)C(=O)N(CCN(C)C)C2c2ccc(C)cc2)cc1 (stereo unspecified) | 5.8% |
| O=c1[nH]c(=O)n(C2CC(O)C(CO)O2)cc1I (stereo unspecified) | -3.6% |
| Cc1ccc(C(=O)c2cn(CC(=O)Nc3ccc(Cl)cc3)c3ccc(F)cc3c2=O)cc1C | 43.6% |
| CC(=O)c1cccc(NC(=O)CCCCCN2C(=O)c3ccccc3C2=O)c1 | 3.2% |
| CC1=C(C(N)=O)C(c2cccc(O)c2)NC(=S)N1 (stereo unspecified) | -1.6% |
| Cc1ccc(C(=O)NNc2ncnc3c2cnn3-c2ccc(Cl)c(Cl)c2)cc1 | 1.4% |
| COc1ccc(CN2CC3=C(C2=O)C(c2ccc(C)cc2)NC(=O)N3)cc1 (stereo unspecified) | -15.5% |
| O=C(Nc1c(C(=O)Nc2ccc([N+](=O)[O-])cc2)oc2ccccc12)c1ccccc1 | 13.9% |
| O=C(NCCc1csc(-c2ccc(C(F)(F)F)cc2)n1)c1cccc(Cl)c1 | 12.9% |
| CCOC(=O)c1sc(Nc2nc3cc(OC)ccc3s2)nc1C | 76.3% |
| O=C(CSc1ccccc1)Nc1nnc(-c2ccccn2)o1 | -0.4% |
| NC(=O)c1nc(-c2ccccc2Cl)nc2c1[nH]c(=O)n2-c1ccccc1F | 33.0% |
| Cn1c(=O)c2c(nc3n2CC(COc2ccccc2)O3)n(C)c1=O (stereo unspecified) | -14.6% |
| CCc1cc(-c2[nH]ncc2-c2ccc(F)cc2)c(O)cc1OC | 31.5% |
| Cc1ccc(Cn2nnc(C(=O)NCc3ccco3)c2N)cc1 | -6.0% |
| Cn1c(=O)[nH]c(=O)c2c1nc(N)n2CCOc1ccccc1 | -5.9% |
| COc1ccc2cc(CCNC(=O)c3ccc(C)cc3)c(=O)[nH]c2c1 | 8.8% |
| O=C(Cn1cnc2c(nnn2-c2ccccc2)c1=O)Nc1ccc2c(c1)OCO2 | -13.9% |
| CCOc1ccccc1C(=O)Nc1c2c(nn1C(C)(C)C)CSC2 | 4.8% |

This is a subset; the hit share may differ from the screen's.
